Screening data (PubChem BioAssay)
Vif TR-FRET – HIV-1 Vif–A3G interaction blockers – biochemical, TR-FRET, GST-Vif 1-94, biotin-A3G peptide, dose response retest, primary screen (AID 1117319); TR-FRET GST-Vif / biotin-A3G peptide binding; higher % means a stronger effect; test concentration not given here; strong numbers were not always called active; one-dose inhibition, %; IC50 in µM for titrated hits; hit rate 0.57% among 260,000;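 active means above the screen mean plus three standard deviations and confirmed in dose response; inconclusive means results disagree or hit not tested in dose response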;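 further: Vif residues 1-94 fused to GST binding biotinylated APOBEC3G peptide 110-148; 0% = full assay without inhibitor and 100% = GST in place of GST-Vif; retest series ran down from 100 µM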
Bfl-1 A1 inh – inhibitors of the anti-apoptotic protein A1, read as caspase activation; MEF A1-2A-BIM cells, Caspase-Glo 3/7 luminescence, 3 h; percent of clofoctol response, vehicle zero; caspase activation, % (no concentration beside the values); hit rate 0.066% among 330,000;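 active means over half of replicate activation scores above 10%, or exactly half above 10 with the replicate mean above 10; inconclusive means replicate mean below 10 yet half the replicates above 10; inactive means over half of replicates below 10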;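 further: wells of about 30 µL received 50 nL stock; many hits fall short of the cut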
Calb FLC – affects C. albicans growth with fluconazole. hit rate 0.57% among 300,000. AID 1979. C. albicans CaCi-2 (fluconazole-resistant clinical isolate) + fluconazole, Alamar Blue growth, 48 h. growth inhibition, % (no concentration beside the values);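 active means most replicates above 75%; inconclusive means exactly half above 75%; inactive means most below 75%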;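 further: all wells also contain fluconazole at 8 µg/ml as a sub-toxic cotreatment; 0% = median of DMSO wells and 100% = median of geldanamycin control wells; wells of about 8 µL received 7.5 nL stock; the first replicate is given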
AF4-AF9 inh – inhibitors of human MLL-AF4/AF9 interaction. P42568. AID 651704. inhibition, % at 10 µM. AlphaScreen, biotin-AF4 peptide binding to FLAG-AF9. hit rate 0.47% among 350,000;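 active means every replicate reaching a set inhibition limit, whatever the replicate mean, cut at about 25% in these data; inconclusive means mean inhibition reaches that limit but some replicates miss it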;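 further: 0% = plate neutral control median and 100% = total signal loss; the record names both 10 and 1 µM as test concentration; the first replicate is given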
Target sequence (P42568 whole entry, looked up): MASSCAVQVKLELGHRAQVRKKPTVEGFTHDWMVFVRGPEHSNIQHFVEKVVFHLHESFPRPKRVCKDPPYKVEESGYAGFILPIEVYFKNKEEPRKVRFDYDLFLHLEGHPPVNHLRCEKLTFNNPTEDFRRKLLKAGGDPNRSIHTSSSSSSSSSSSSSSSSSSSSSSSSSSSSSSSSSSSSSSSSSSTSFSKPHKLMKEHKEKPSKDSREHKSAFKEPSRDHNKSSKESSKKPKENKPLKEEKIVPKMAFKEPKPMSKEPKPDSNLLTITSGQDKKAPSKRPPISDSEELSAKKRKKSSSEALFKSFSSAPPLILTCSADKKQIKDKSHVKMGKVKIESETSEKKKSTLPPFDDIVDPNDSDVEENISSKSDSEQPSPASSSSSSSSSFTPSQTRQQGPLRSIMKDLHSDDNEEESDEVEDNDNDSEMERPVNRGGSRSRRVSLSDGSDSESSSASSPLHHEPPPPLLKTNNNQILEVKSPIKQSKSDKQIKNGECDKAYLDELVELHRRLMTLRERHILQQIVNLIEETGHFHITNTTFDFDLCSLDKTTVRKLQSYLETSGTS
Ecoli rRNA inh – inhibitors of bacterial rRNA selective over humanized ribosomes. E. coli WT GFP vs humanized-ribosome RFP mutants, fluorescence, 24 h; stronger effect = lower value; DMSO median 0, no signal -100. GFP signal change (wild-type ribosome), % (test concentration not listed). hit rate 1.6% among 350,000. AID 720706;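 active means significant combined selectivity score with lowered wild-type GFP, culture density cut under 30%, mutant RFP and density less affected; inactive means any of these conditions unmet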; further: one replicate is shown; some compounds called inactive have numbers as strong as hits
T cruzi inh – T. cruzi replication inhibition. T. cruzi beta-gal in NIH3T3, luminescence, 90 h. inhibition, % (concentration not given with the values). hit rate 1.4% among 300,000. AID 1885;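 active means mean inhibition across valid replicates above about 55%, limit read from the data; inconclusive means mean below that limit but half or more replicates reach it; inactive means mean below it, under half of replicates reach it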;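 further: signal also drops with host cell toxicity which is not excluded here; 0% = plate median of DMSO wells and 100% = zero luminescence signal; higher percent means less beta-gal luminescence so fewer parasites; stock transfer was 50 nL into about 50 µL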
Beta cell apopt – beta cell apoptosis inhibition; protection from apoptosis, % (concentration not given with the values); AID 435005; INS-1E cytokine-induced death, ATP luminescence, 48 h; percent of positive-control rescue, neutral wells zero; hit rate 0.8% among 300,000;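 active means all replicates at 75% or more, or half of them and the mean; inconclusive means half reach 75% but not the mean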;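 further: 0% = cytokine-treated negative control wells and 100% = positive control rescue; higher means more ATP so stronger rescue from cytokine killing; wells of about 40 µL received 100 nL stock; the first replicate is given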
RanGTP-Imp inh – disruptors of Ran-importin-beta complex formation – biochemical, FRET, CFP-Ran, YFP-importin-beta, homogeneous, primary screen. AID 2216. hit rate 1.1% among 300,000. cell-free CFP-Ran/YFP-importin-beta FRET ratio. inhibition, % (concentration not given with the values);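 active means most replicates above 15%; inconclusive means exactly half above 15%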;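 further: 0% = DMSO wells and 100% = Ran loaded with GDP instead of GTP; wells of about 40 µL received 100 nL stock; the first replicate is given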
Ecoli rRNA inh OD600 – second read-out of Ecoli rRNA inh, no call of its own (marks repeat the call); OD600 change, %; measured here: OD600 growth;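 optical density of the mix in the first replicate; 0 = DMSO median and -100 = no signal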
Ecoli rRNA inh RFP – recorded beside Ecoli rRNA inh, whose call it bears; RFP signal change, %; measured here: RFP humanized mutant strains;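 first replicate; 0 = DMSO median and -100 = no signal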
* = called active by the depositor; u = inconclusive; x = not tested or not shown. An excerpt, so the mix of outcomes need not match the whole.

SMILES	Vif TR-FRET	Bfl-1 A1 inh	Calb FLC	AF4-AF9 inh	Ecoli rRNA inh	Ecoli rRNA inh OD600	Ecoli rRNA inh RFP	T cruzi inh	Beta cell apopt	RanGTP-Imp inh
COc1ccc(/C=N\NC(=O)c2ccc(=O)[nH]n2)cc1O	x	0.5	-10	x	x	x	x	4	x	2.6
Cc1[nH][nH]c(=O)c1C(c1ccc([N+](=O)[O-])cc1)c1c(C)[nH][nH]c1=O	x	0.6	-5	2.5	-5	12	-2.9	-5	-7	1.0
CCCCCCOC(=O)/C=C/c1c(C)[nH]c(=O)[nH]c1=O	u	-0.1	0	x	x	x	x	41	-13	3.0
O=C(NNC(=O)c1nn(-c2ccc(F)cc2)ccc1=O)Nc1cccc(Cl)c1	6%	-0.1	0	-7.1	5	1	-1.1	5	-3	0.2
Cc1nnc(Sc2cc(C(=O)NCCCOC(C)C)c3ccccc3n2)s1	-4%	-0.4	-4	-1.9	1	4	-1.5	-9	0	-4.8
Cc1ccc(NS(=O)(=O)c2ccc(C(=O)NCc3ccncc3)cc2)cc1	0%	-0.5	-9	3.8	3	12	-1.1	-5	1	6.2
Cn1c(C(O)c2ccc3c(c2)OCO3)nc2ccccc21 (stereo not given)	-1%	0.4	-2	x	x	x	x	0	1	3.7
COCCn1c(=NC(=O)C2COc3ccccc3O2)sc2cc(S(N)(=O)=O)ccc21 (stereo not given)	-24%	2.6	-7	2.3	1	10	1.1	4	7	0.7
CCOC(=O)N1CCN(S(=O)(=O)c2cccc3nsnc23)CC1	2%	0.3	5	x	x	x	x	-9	1	0.9
CCC(=O)N1CCN(c2ccc(NC(=O)c3ccc(N4CCCC4)c([N+](=O)[O-])c3)cc2)CC1	-3%	0.4	-14	-3.7	2	12	6.0	19	-3	1.3
Cc1ccc(Cl)cc1N(C(=O)c1csnn1)C(C(=O)NC1CCCC1)c1ccco1 (stereo not given)	20%	0.4	6	0.5	7	10	0.1	9	-3	0.2
Cc1ccc(S(=O)(=O)NC(=O)Nc2cccc(C)n2)cc1	19%	0.2	-4	-1.3	7	0	-2.5	-11	x	2.0
Cc1cccc(-c2c3c(nc4c2c(=O)n(C)c(=O)n4C)-c2ccccc2C3O)c1 (stereo not given)	x	0.5	15	1.8	6	-5	-1.8	-16	1	-2.9
O=C1[C@H]2[C@@H](c3ccc(F)cc3)N3C(=O)N(c4cccc(Cl)c4)C(=O)[C@@]3(Cc3ccccc3)[C@H]2C(=O)N1C1CCCCC1	x	0.2	-28	-0.1	-2	4	-15	16	23	-7.0
COc1ccccc1C1NC(=O)c2ccccc2O1 (stereo not given)	x	0.4	0	-8.1	-4	-12	-2.6	-12	0	6.4
COc1ccc(C(C(=O)NC(C)(C)C)N(C(=O)CCC(=O)Nc2cc(C)on2)c2ccc(C)c(C)c2)cc1 (stereo not given)	x	-0.2	-3	0.8	3	2	1.1	26	-7	-0.6
COCCNC(=O)CCn1nc(-c2ccc(C)cc2)ccc1=O	-9%	1.2	-14	1.4	9	11	-1.1	-2	x	0.9
CN(C)CCOC(=O)C12CC3CC(C1)CC(C(=O)OCCN(C)C)(C3)C2	2%	0.4	-6	-3.4	18	11	2.6	4	0	0.7
OC(CC#CCN1CCCC1)(c1ccccc1)c1ccccc1	x	-0.1	-11	1.7	-4	0	1.4	6	-5	-0.1
COCCn1c(SCC(=O)N2CCCC2)nnc1-c1ccoc1C	-2%	-0.3	-3	x	x	x	x	-10	-8	1.0
COc1cc(C(=O)NCC(=O)NNC(=O)C2COc3ccccc3O2)cc(OC)c1OC (stereo not given)	9%	0.5	x	0.3	6	4	17	x	4	x
CCN(CC)CCn1c2c(c(SCC(=O)Nc3cccc4ccccc34)nc1=O)CCC2	5%	-0.3	5	-1.0	6	5	-0.5	9	-2	4.4
O=C(Nc1ccc(O)cc1C(=O)O)c1cccc(Br)c1	16%	-0.2	-4	x	x	x	x	-2	-2	1.1
Clc1ccc(C2=Nn3c(nnc3-c3n[nH]c4c3CCC4)SC2)cc1	23%	0.0	-2	x	x	x	x	1	16	-1.9
CC(=O)c1cccc(NC(=O)CSc2nnc(C(C)N(C)C)n2-c2ccc(F)cc2)c1 (stereo not given)	x	-0.2	14	-1.0	10	10	-1.8	-6	-7	4.2
Cc1ccc(S(=O)(=O)CC(C)(O)CS(=O)(=O)c2ccc(C)cc2)cc1	4%	-0.5	12	-2.9	1	10	-0.5	-5	-4	3.3
COc1ccc(OC)c(CCNC(=O)CCc2cn(C)c3ccccc23)c1	3%	0.4	-2	7.6	-19	-17	6.9	-16	-9	-1.5
O=C(Cn1c2c(c(-c3ccccc3)cc1=O)CCCC2)N1CCCCCC1	7%	-1.0	11	2.2	-54	-74	-10	6	-1	1.7
COc1ccc(C2Nc3ccccc3C(=O)N2NS(=O)(=O)c2ccccc2)cc1OC (stereo not given)	x	1.4	32	-3.3	4	-1	-0.6	3	x	-3.1
COc1ccc(C(=O)N2CCCC(Nc3ccc(C)c(C)c3)C2)cc1F (stereo not given)	u	-0.1	7	-12	5	5	6.7	4	x	-2.3
CCN(CC)S(=O)(=O)c1cccc(-c2nnc(SCC(=O)N3CCC(C(=O)O)CC3)n2N)c1	0%	0.1	-5	-1.2	7	-3	-8.0	-1	-10	-2.3
COC(=O)N/N=C/c1c(C)c(C(=O)c2ccc(F)cc2)n2ccccc12	x	0.4	12	x	x	x	x	23	-3	0.5
C#CCOCCOCCOCCNc1nc(N2CCOCC2)nc(N2CCN(C(=O)[C@H](CCCCN)n3cc([C@@H](N)C(C)CC)nn3)CC2)n1 (stereo not given in full)	x	0.3	-3	2.3	11	20	1.8	-2	-8	5.3
O=C1NC(=S)N/C1=C/c1cccnc1	-8%	0.0	5	-11	4	9	-6.6	0	-5	2.8
CC(=O)N1c2ccc(S(=O)(=O)N3CCCCC3)cc2CC1C(=O)NCc1ccc(N(C)C)cc1 (stereo not given)	x	0.1	-10	0.4	14	9	2.3	-10	-3	-2.6
CCOC(=O)c1c(C)n(OC)c2ccc3c(no[n+]3[O-])c12	-9%	-0.3	2	x	x	x	x	-1	4	1.3
COc1cc(C)ccc1OCCCOc1c(Cl)cccc1Cl	22%	1.5	1	-4.5	x	x	x	21	9	2.9
COc1ccc(C(=O)/C=C2/c3ccccc3CC(C)(C)N2C)cc1	-1%	0.6	16	9.8	x	x	x	-39	5	-4.2
CCc1nnc(NC(=O)CSc2ncc(-c3ccccc3)n2CC)s1	2%	0.7	2	x	x	x	x	8	-10	-3.7
CCCCN1/C(=C/c2cccc[n+]2C)Sc2cc(NC(C)=O)ccc21	3%	1.6	-15	-0.6	24	6	4.5	13	25	-0.7
COc1ccc(S(=O)(=O)N2CCCC2CNC(=O)C(=O)NCc2ccccc2Cl)cc1 (stereo not given)	0%	0.5	-13	1.8	-7	-13	0.6	10	5	4.4
CS(=O)(=O)N(CC(=O)N1CCc2ccccc2C1)Cc1ccc(F)cc1	x	0.1	-5	2.5	-1	-8	2.2	12	x	0.5
Cc1ccc(N2C(=O)C(CN(C)C)C2c2ccccc2)cc1 (stereo not given)	16%	0.9	-16	x	x	x	x	16	-2	1.9
CNC(=O)CC1C(=O)N(c2ccc(OC)cc2)C(=S)N1NC(=O)c1cccc(F)c1 (stereo not given)	x	-1.5	6	-0.3	3	7	-4.7	-14	-6	8.4
Cc1ccc(-n2nc(C)c3c(C)cc(=O)[nH]c32)cc1	12%	-0.2	57	x	x	x	x	-2	-8	3.2
CN(C)c1ccc(NC(=O)c2cccc([N+](=O)[O-])c2)c2ccccc12	x	0.2	-3	5.3	5	-3	-3.7	-4	2	-2.1
CCn1cc(SCC(=O)NCC2CCCO2)c2ccccc21 (stereo not given)	x	1.3	-5	1.7	6	11	-1.9	-1	-8	5.1
Cc1ccc2nc(-c3ccccn3)cc(C(=O)NC3CCN(C)CC3)c2c1	-2%	x	5	x	x	x	x	17	x	-1.6
COc1ccc(C(=O)c2ccc(N3CCN(C4CC(=O)NC4=O)CC3)cc2)cc1F (stereo not given)	u	-0.8	13	x	x	x	x	-17	2	1.6
COc1ccc(CNC(=O)CN(Cc2ccc(C)cc2)S(=O)(=O)c2ccc(Cl)cc2)cc1	9%	0.1	-2	x	x	x	x	38	7	1.4

Next section.
SMILES	Vif TR-FRET	Bfl-1 A1 inh	Calb FLC	AF4-AF9 inh	Ecoli rRNA inh	Ecoli rRNA inh OD600	Ecoli rRNA inh RFP	T cruzi inh	Beta cell apopt	RanGTP-Imp inh
COCC(=O)N1CCCC(C(=O)c2ccc3c4c(cccc24)CC3)C1 (stereo not given)	8%	-0.1	-3	-9.4	-1	0	1.7	-17	-2	-1.9
Cc1cc(C)nc(NC(=O)/C=C/c2ccc3c(c2)OCO3)c1	x	-10	0	x	x	x	x	0	10	-2.4
O=C(NCCCN1CCOCC1)C1CCN(S(=O)(=O)c2ccccc2)CC1	-12%	0.4	2	-0.4	6	6	-1.6	-4	-1	-2.1
O=C(CSC1CS(=O)(=O)c2cc([N+](=O)[O-])ccc21)NNC(=O)c1ccc(Cl)cc1 (stereo not given)	-3%	-0.7	-1	x	4	6	0.0	1	-4	-0.9
NS(=O)(=O)c1cccc(NC(=O)COC(=O)CC2Sc3ccccc3NC2=O)c1 (stereo not given)	-3%	0.6	x	u	-4	-3	9.1	x	-7	x
CCOC(=O)Cn1cnc2c(nnn2-c2ccc(C)cc2)c1=O	5%	0.8	0	x	x	x	x	-3	-4	-3.0
COC(=O)c1ccc(Oc2nc(C(N)=O)cc(-c3ccccc3)n2)cc1	-13%	-0.6	2	x	x	x	x	-18	2	u
CCOC(=O)c1cc(-c2cccs2)nn1CCC#N	19%	0.8	0	x	x	x	x	0	-2	0.9
Cc1nc(SCc2ccccc2)c(C(F)(F)F)c(=O)[nH]1	u	0.7	34	x	x	x	x	-7	0	1.1
CCCCCCC(=O)Nc1nc(C)c(-c2csc(Nc3cc(Cl)ccc3OC)n2)s1	6%	-0.4	-13	4.2	-10	7	13	4	-5	u
Nc1ncc(-c2cc3ccccc3oc2=O)s1	30%	0.1	-3	x	x	x	x	4	-3	0.6
Cc1ccc2nc(C)c3c(c2c1)SCC3	x	1.1	3	-1.0	2	-3	-1.0	4	-2	3.0
Cn1cc(S(=O)(=O)Nc2cccc3ccccc23)c(=O)n(C)c1=O	x	-0.2	-2	-0.3	5	8	0.2	-5	-5	-2.0
CC(NC(=O)COC(=O)CSc1ccc(F)cc1)c1ccc(F)cc1 (stereo not given)	-6%	0.3	1	-62	2	5	-1.0	-10	-4	2.4
